Source: PubChem
NPYLR7 agonist: mosquito NPYLR7 agonism; HEK293T NPYLR7/Galpha15, GCaMP6s calcium fluorescence; 0.15% of 270,000 active; activation, % at 10 µM; in the data active means activation above about 40%;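 further: 0% = vehicle and 100% = reference agonist at the receptor; some compounds past the cut are filed as inactive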
NPYLR7 agonist max-min: second read-out of NPYLR7 agonist, no call of its own (marks repeat the call); activation, %; measured here: Max-Min RFU normalised activation; some inactives read as strong as hits;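 span of the calcium signal over five minutes; 0% = vehicle and 100% = native peptide agonist; compound fluorescence can raise it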
* hit, by the source's call; & = joins results of further samples.

nr	structure	NPYLR7 agonist max-min	NPYLR7 agonist
1	CCOC(=O)c1cc(-c2ccc(CC)cc2)n(C2CCN(C(=O)C3C[C@H]3c3ccccc3)CC2)n1 (stereo not given in full)	21	31
2	C(=C\c1ccccc1)/CNCC1CCNCC1	12	6
3	CCN1CCCC1CN(CC1CCN(CCOC)CC1)C(=O)c1ccc(SC)cc1 (stereo not given)	3	5
4	COc1ccc(CN2CCC2(C)C(=O)Nc2cc(OC)ccc2OC)cc1 (stereo not given)	-2	1
5	O=C(CCc1nc2ccc(F)cc2[nH]1)N[C@H]1COC[C@@H]1N1CCCC1	4&4	12&8
6	Cc1ccccc1S(=O)(=O)NC(=O)C1(C)CCN1C(=O)Cc1cc(F)ccc1F (stereo not given)	2	6
7	CCC(C)c1ccc(O[C@@H]2O[C@H](CO)[C@@H](O)[C@H](O)[C@H]2NC(C)=O)cc1 (stereo not given in full)	0	2
8	O=S(=O)(NCc1cccc2c1OCCO2)c1ccc(F)cc1Cl	14&-7	13&-4
9	CCCCn1c(=O)[nH]c(=O)c2c1nc(COC(=O)C=C(C)C)n2CC	6	0
10	COCC(=O)Nc1ccc(N(C)C)c(CN(CC2CCCO2)S(C)(=O)=O)c1 (stereo not given)	12	-1
11	CC1(C)N([O-])C(c2ccc(-c3ccccc3)cc2)=C[N+](=O)C1(C)C	-4	1
12	CS(=O)(=O)NC1CCCN(C(=O)Cc2ccc(Cl)cc2)C1 (stereo not given)	-1	0
13	COc1cc(C2C(C(=O)OC(C)C)=C(C)NC3=C2C(=O)CC(c2ccccc2)C3)cc(Cl)c1O (stereo not given)	-14	-11
14	COc1ccc(C(C#N)Nc2ccccc2)cc1 (stereo not given)	-10	-7
15	CCN1C(SCc2ccc(N3CCCC3=O)cc2)=NS(=O)(=O)c2ccccc21	-8	-6
16	CCC(C)(C)c1ccc(S(=O)(=O)N2CCCN(c3c(-c4ccc(OC)cc4)cnc4ncnn34)CC2)cc1	16	25
17	CC(NC(=O)c1cc(Cl)c(Cl)n1C)c1ccc(NS(C)(=O)=O)cc1 (stereo not given)	-7	-7
18	Cc1cc(NC(=O)C2c3ccccc3Oc3ccccc32)n(-c2nc(C)c(C)c(=O)[nH]2)n1	7	11
19	COc1cc(-c2nnc(SCc3nnc(-c4ccco4)o3)o2)cc(OC)c1OC	11	8
20	CC(OC(=O)c1cccc2c1OC(C)C2C)C(=O)N1CCc2ccccc21 (stereo not given)	0	4
21	CCOc1ccc(C(=O)NCC(=O)N2CCN(c3nnc(C)c(C)c3C#N)CC2)cc1	4	11
22	CN1CCN(NC(=O)c2ccc(N3CCCCCC3)c([N+](=O)[O-])c2)CC1	-5	-1
23	CSC1(CNc2ccc(Br)cn2)CCOCC1	6&-1	7&0
24	Cc1cccc(C)c1OCC(O)CSc1nncs1 (stereo not given)	8	9
25	Cc1ccc(N=Nc2sc3nc4c(c(=O)n(C)c(=O)n4C)n3c2O)cc1	2	2

The listing continues:
nr	structure	NPYLR7 agonist max-min	NPYLR7 agonist
26	CN(C(=O)c1ccc(Cl)cc1)C1(C)CCS(=O)(=O)C1 (stereo not given)	14	8
27	Cc1ccc(-n2nnnc2CNC(=O)c2cccc3ccccc23)cc1C	-6	-2
28	Cc1cc(Br)c(NC(=O)CN(C)C)c(Br)c1	-25	-22
29	Cc1c(C(=O)O)nnn1-c1ccc(-c2ccccc2)cc1	3	4
30	CCCCCN(Cc1cccn1Cc1cccc(C(F)(F)F)c1)C(=O)CN(CC)C(=O)c1cccc(Br)c1	25	22
31	CC(C(=O)N1CCc2c(nc(N(C)C)[nH]c2=O)C1)n1cnc2ccccc21 (stereo not given)	-5	0
32	COCCN(Cc1ccc(OC)c(OS(=O)(=O)c2ccc(OC)cc2)c1)C(=O)CC(C)(C)C	-3	6
33	CCc1ccc(C(CNc2nc3c(cnn3C(C)(C)C)c(=O)[nH]2)N(C)C)cc1 (stereo not given)	4	5
34	CCOc1ccccc1C(=O)NC1C=CC(C(C(=O)OC)c2ccc(OC)cc2)C1 (stereo not given)	10	6
35	Cc1cc(C)cc(N(CCC#N)C(=O)CN(C)C(C)C(C)(C)C)c1 (stereo not given)	17	18
36	Cc1[nH]n(-c2ccccc2)c(=O)c1N=Nc1ccc2ccccc2c1	-7	-2
37	Cc1c(C(=O)N2CCCc3ccccc32)nnn1-c1ccccc1	-1	3
38	CSc1ccc(NC(=O)c2sc(-c3ccccc3)nc2C)nn1	0	0
39	Cc1cc(CN(C)C(=O)C2CSCN2C(=O)CC(C)(C)C)no1 (stereo not given)	0	3
40	CCOC(=O)C(C(=O)OCC)C1CCS(=O)(=O)C1 (stereo not given)	-1	0
41	O=C1OC(/C=C\c2cccc([N+](=O)[O-])c2)=NC/1=C/c1ccccc1	6	5
42	COC(=O)C1=C(SCc2ccccc2)SC(=C2C(=O)CC(C)(C)CC2=O)S1	2	1
43	O=C(O)CC(NC(=O)c1cnn(-c2ccccc2)c1)c1ccc(F)cc1 (stereo not given)	3	7
44	COC(=O)c1ccc(S(=O)(=O)N(CCC#N)c2ccc(C)cc2)o1	4	8
45	CCN(Cc1nc2ccccc2c(=O)[nH]1)Cc1c(C)noc1C	-1	0
46	COc1cc(OC)nc(NCc2cccnc2N2CCN(C(C)=O)CC2)n1	4	4
47	COc1ccc(-c2nnc(SCc3cc(F)ccc3F)n2-c2ccc(Cl)c(Cl)c2)cc1	2	-5
48	c1ccc(C2C3CCCCC3=Nc3ncnn32)cc1 (stereo not given)	-6&2	-5&8
49	CCCNC(=O)C1(C)CCCN(Cc2ccc3ccccc3c2)C1 (stereo not given)	-10	-11
50	COc1ccc(C(=O)c2c(N)c(-c3nc4ccccc4[nH]3)c3ccccn23)cc1	26	1

Going on with the list:
nr	structure	NPYLR7 agonist max-min	NPYLR7 agonist
51	Cc1ccc2nc(SCC(=O)N3CCCC3)nc(=O)n2c1	-2	0
52	Cc1cc(Oc2cnn(C)c(=O)c2Nc2ccc(C(=O)NCC3CCCO3)cc2)ccc1Cl (stereo not given)	6	-2
53	COc1ccccc1CN1C(=O)O[C@@H]2CN(C(=O)c3cc4ccccc4o3)C[C@@H]21	3	7
54	O=C(NCc1cccc(I)c1)c1cncn1-c1ccc(-c2ccc(F)c(F)c2)cc1	6	9
55	Cc1ccc(OCC2Cn3c(nc4c3c(=O)n(C)c(=O)n4C)O2)cc1 (stereo not given)	-2	-8
56	CCCCCc1ccc(C(=O)N2CCN(C(=O)c3cc(-c4ccccc4)n(-c4ccc(F)cc4F)c3C)CC2)cc1	20	17
57	CCC(=O)Nc1ccc(N(C)C)c(CN(C(=O)c2cccc(C)c2)C(C)c2ccccc2)c1 (stereo not given)	12	6
58	Cc1ccc(C)c(C2c3cccn3CCCN2Cc2ccoc2)c1 (stereo not given)	19	23
59	Cc1ccc(C2(CNC(=O)c3ccsc3)CCOCC2)cc1	-2	0
60	COc1ccc(CN2CCCC(CO)(Cc3ccccc3F)C2)c(F)c1 (stereo not given)	-3	2
61	COC(=O)c1ccccc1NC(=O)c1cccnc1	5	13
62	O=C(NC1CCCc2ccccc21)C(C1CCCC1)N1CCN(C(=O)c2ccc(F)cc2)CC1 (stereo not given)	-2	-5
63	O=C(Nc1ccccc1SC1CCCC1)c1ccco1	3	7
64	CN=c1scc(-c2ccccc2Br)n1N=Cc1ccc[nH]1	10	3
65	CC1(C(=O)Nc2ccc3nc[nH]c3c2)CCN1C(=O)c1ccccc1CCc1ccccc1 (stereo not given)	-4	-3
66	O=C1CC(c2cccs2)Sc2nncn21 (stereo not given)	1	-1
67	O=C(c1cccs1)N1CCN(Cn2nnc(-c3cccs3)n2)CC1	7	8
68	O=C1NC(=O)c2cc([N+](=O)[O-])ccc21	12	13
69	CCOCC(O)CN1CCCN(Cc2ccccc2)CC1C (stereo not given)	4	7
70	Cc1nc2c(C(=O)N(C)Cc3ccncc3C)cccc2[nH]1	1	1
71	O=C(c1ccc([N+](=O)[O-])cc1)N1CCCC(OCc2ccc(F)cc2F)C1 (stereo not given)	-1	-1
72	Cc1nnc(Sc2nc3ccccc3o2)c2ccccc12	0	1
73	CC(C)c1cccc(-c2cccc3c2OC(CN)C3)n1 (stereo not given)	2	-2
74	CC(=O)SCC[N+](C)(C)C	-10	7
75	COc1ccc(C(O)C(=O)NCc2nn(C)c3ccc(C)cc23)cc1 (stereo not given)	10	23

The results go on.
nr	structure	NPYLR7 agonist max-min	NPYLR7 agonist
76	Cc1ccc(OCCC(=O)N2CCN(S(=O)(=O)N(C)C)CC2)c(C)c1	3	11
77	CC(C)CNC(=O)CN1CCN(c2ccc(S(=O)(=O)NC3CCC(C)CC3)cc2[N+](=O)[O-])CC1 (stereo not given)	-1	2
78	CC(=O)c1cc2c(cc1O)OC(C)(C)C=C2	1	5
79	O=C(NCc1ccco1)c1csc(COc2ccc([N+](=O)[O-])cc2)n1	4	1
80	CCc1nc2c(OCc3ccccc3OC)cccn2c1N(C)C(=O)c1ccc(C)cc1	5	-2
81	Cc1ccc(F)cc1NC(=O)C(C)Sc1nnc(OC(C)C)s1 (stereo not given)	-7	-7
82	COc1cccc(CN(Cc2ccco2)Cc2ccc(C(O)(c3cccc(F)c3)c3cccc(F)c3)o2)c1OC	-2	1
83	Cc1ccc(C(=O)NC2CCN(C(=O)NCC3(C)CCOC3)CC2)o1 (stereo not given)	-6	1
84	COc1ccc(-n2c(SCc3ccc(C(=O)NC4CC4)cc3)nnc2-c2ccncc2)cc1	17	6
85	C=CCn1c(N2CCN(Cc3c(F)cccc3Cl)CC2)nc2c1c(=O)[nH]c(=O)n2C	-6	-4
86	CC(C)CN1CCC[C@@H]1CNC(=O)COCC1CCCO1 (stereo not given in full)	8	10
87	O=C1NC2(CCc3ccccc32)C(=O)N1CCOc1ccc(Cl)cc1Cl (stereo not given)	-13	-9
88	COc1ccc(OC)c2sc(N(Cc3ccco3)C(=O)c3cc(C)nn3C)nc12	7	10
89	Cc1cccnc1NC(=O)c1cccc(S(=O)(=O)N2CCCCC2)c1	1	3
90	CC1CCc2c(sc3ncnc(N4CC(C)OC(C)C4)c23)C1 (stereo not given)	10	10
91	COCCCN(Cc1c(-c2ccccc2)noc1N1CCCCC1C)C(=S)Nc1ccc(F)cc1 (stereo not given)	2	1
92	Cc1nnc2c(C(=O)NCCNc3cccc4ccccc34)cccn12	13	18
93	Cc1ccc(Cc2nc(N3CCN(C(=O)c4ccc(Cl)c(Cl)c4)CC3)c3c(-c4ccc5ccccc5c4)noc3n2)cc1	28	13
94	COC(=O)c1ccc(C)c(OCC(=O)Nc2cc3c(cc2Cl)OCCO3)c1	-4	-3
95	CC1(C(=O)NS(=O)(=O)Cc2cccc(Cl)c2)CCN1C(=O)C1CC1 (stereo not given)	3	1
96	Cc1cc(C)n(-c2nc(N)cc(Cl)n2)n1	-1	0
97	CCOC(=O)C(C(=O)COC(=O)c1cc(Br)ccc1O)c1nc(C)cs1 (stereo not given)	10	6
98	O=C(c1cnn2c1CCCC2)N(Cc1ccccn1)CC1CCCO1 (stereo not given)	7	6
99	O=C(NCC1CCCN(Cc2cnc(-c3ccccc3)s2)C1)c1n[nH]c2ccccc12 (stereo not given)	1	8
100	CC(C)CN(CC(=O)N(CCc1c[nH]c2ccccc12)Cc1ccc(C(F)(F)F)cc1)C(=O)c1cccc([N+](=O)[O-])c1	22	27

The list continues:
nr	structure	NPYLR7 agonist max-min	NPYLR7 agonist
101	NC(=O)c1cc(NS(=O)(=O)c2ccc(Br)s2)ccc1Cl	-1	1
102	Cc1ccc(/C=N\OC(C)C(=O)Nc2c(C)cccc2C)o1 (stereo not given)	13	0
103	NC(=O)CC1CCCN(C(=O)C2(c3cccc(Br)c3)CC2)C1 (stereo not given)	0	2
104	CC1CCCCN1c1cc(C(=O)Nc2cc(C3CC3)[nH]n2)ccn1 (stereo not given)	2	4
105	O=C1CC(=O)N2C(c3ccccc3)=CSC2(OCCS)N1 (stereo not given)	-6	-2
106	COc1ccc(-c2cnc(-c3cccc(CNC(=O)c4cccc(OC)c4)c3)[nH]2)cc1	-2	-1
107	CCCCSC(C)C(=O)N(C)c1ccccn1 (stereo not given)	-2	-1
108	COc1ccccc1Oc1cnn(C)c(=O)c1Nc1cccc(C(=O)NCc2ccc3c(c2)OCO3)c1	5	5
109	CCCS(=O)(=O)Nc1cccc(C(=O)Nc2ccc(F)cc2OC)c1	3	3
110	CCCC1=NN(C(=O)COc2ccc(Cl)c(C)c2)C(O)(C(F)(F)F)C1 (stereo not given)	-1	0
111	CCOc1ccc(CC(=O)Oc2coc(CSc3nc(C)cc(C)n3)cc2=O)cc1	-15	-16

Ordered by molecular weight (lowest first): 14 of the compounds above.
nr	structure	NPYLR7 agonist max-min	NPYLR7 agonist
107	CCCCSC(C)C(=O)N(C)c1ccccn1 (stereo not given)	-2	-1
105	O=C1CC(=O)N2C(c3ccccc3)=CSC2(OCCS)N1 (stereo not given)	-6	-2
104	CC1CCCCN1c1cc(C(=O)Nc2cc(C3CC3)[nH]n2)ccn1 (stereo not given)	2	4
98	O=C(c1cnn2c1CCCC2)N(Cc1ccccn1)CC1CCCO1 (stereo not given)	7	6
103	NC(=O)CC1CCCN(C(=O)C2(c3cccc(Br)c3)CC2)C1 (stereo not given)	0	2
109	CCCS(=O)(=O)Nc1cccc(C(=O)Nc2ccc(F)cc2OC)c1	3	3
95	CC1(C(=O)NS(=O)(=O)Cc2cccc(Cl)c2)CCN1C(=O)C1CC1 (stereo not given)	3	1
110	CCCC1=NN(C(=O)COc2ccc(Cl)c(C)c2)C(O)(C(F)(F)F)C1 (stereo not given)	-1	0
101	NC(=O)c1cc(NS(=O)(=O)c2ccc(Br)s2)ccc1Cl	-1	1
106	COc1ccc(-c2cnc(-c3cccc(CNC(=O)c4cccc(OC)c4)c3)[nH]2)cc1	-2	-1
99	O=C(NCC1CCCN(Cc2cnc(-c3ccccc3)s2)C1)c1n[nH]c2ccccc12 (stereo not given)	1	8
97	CCOC(=O)C(C(=O)COC(=O)c1cc(Br)ccc1O)c1nc(C)cs1 (stereo not given)	10	6
108	COc1ccccc1Oc1cnn(C)c(=O)c1Nc1cccc(C(=O)NCc2ccc3c(c2)OCO3)c1	5	5
100	CC(C)CN(CC(=O)N(CCc1c[nH]c2ccccc12)Cc1ccc(C(F)(F)F)cc1)C(=O)c1cccc([N+](=O)[O-])c1	22	27

Not all compounds are listed, so the mix of outcomes need not match the whole.
